# SARS PLP yeast – SARS-CoV PLP inhibition in yeast. S. cerevisiae expressing SARS-CoV PLpro, growth rescue; control for the full effect not named in the record. Potency, µM (titrated, usually from 32.9 µM), for inactives: top-dose activity, positive = growth rescue. 0.19% of 330,000 active. AID 485353; also: 0% is about no effect; nearly all actives have a fitted effect of over 55% in size; growth read by luminescence after 48 h
# Cruzain inh Det – blocks cruzain activity in presence of Triton detergent. P25779. 0.43% of 200,000 active. AID 1478. purified cruzain, Z-FR-AMC fluorescence, 0.01% Triton. Potency, µM, for the others: max response, negative = inhibition, most hits filed as inhibitors; active = well fitted curve in the direction sought with a large enough effect; inconclusive = small, poorly fitted or top-dose-only effect, or another doubt; inactive = no such curve, though single readings can be large; an effect the other way counts as inactive or inconclusive;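 also: plate controls were neutral wells for no effect and buffer without enzyme for full effect; nearly all actives have a fitted effect of over 40% in size; top concentration of the series not given in the record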
# Target sequence (P25779 123-467 limits assumed): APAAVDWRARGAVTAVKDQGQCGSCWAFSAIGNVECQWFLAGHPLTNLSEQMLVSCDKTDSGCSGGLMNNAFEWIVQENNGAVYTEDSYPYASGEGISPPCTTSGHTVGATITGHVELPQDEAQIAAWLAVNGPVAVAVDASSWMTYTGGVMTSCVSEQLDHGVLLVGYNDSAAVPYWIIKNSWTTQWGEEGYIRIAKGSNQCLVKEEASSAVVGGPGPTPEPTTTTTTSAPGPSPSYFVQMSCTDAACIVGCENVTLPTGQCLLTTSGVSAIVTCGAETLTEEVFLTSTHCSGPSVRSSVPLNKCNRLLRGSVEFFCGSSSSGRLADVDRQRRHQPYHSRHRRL
#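 Sodium acetate buffer (100 mM, pH 5.5) containing 5 mM DTT and 0.01% Triton X-100 hosted 1.5 nM cruzain and test compound for 15 min at room temperature. Cleavage of 2 uM Z-FR-AMC was then tracked by fluorescence.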
# Cruzain noTriton – inhibitors of Trypanosoma cruzi cruzain without detergent; P25779; purified cruzain, Z-FR-AMC fluorescence, no detergent; Potency, µM, for inactives: max response, negative = inhibition, most hits filed as inhibitors; 2.3% of 200,000 active; AID 1476; active = well fitted curve in the direction sought with a large enough effect; inconclusive = small, poorly fitted or top-dose-only effect, or another doubt; inactive = no such curve, though single readings can be large; an effect the other way counts as inactive or inconclusive;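 also: plate controls were enzyme without inhibitor for no effect and buffer without enzyme for full effect; nearly all actives have a fitted effect of over 40% in size; top concentration of the series not given in the record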
#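 Detergent-free condition (0.00005% Triton X-100) in acetate buffer pH 5.5 with DTT. 1.5 nM enzyme and compound were pre-mixed 15 min, then 2 uM Z-FR-AMC substrate added; reaction progress from fluorescence change between first and third reads (60 s).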
# 2A StopGo – lowers the luciferase signal of an FMDV 2A StopGo reporter; human cells with a luciferase reporter of 2A StopGo recoding; control for the full effect not named in the record; Potency, µM (doses to about 57.9 µM), inactives show top-dose signal change, negative = less light; 1.2% of 410,000 active; active = well fitted falling curve with a large enough effect; inconclusive = small, poorly fitted or top-dose-only effect; inactive = no such curve, though single readings can be large or run the other way; tested in HEK293T cells; also: % is scaled to controls: 0 for no effect and ±100 for the full control effect; nearly all actives have a fitted effect of over 45% in size; luciferase light after 4 h
# Lassa entry inh – Lassa virus entry inhibition. Lassa virus pseudotype entry inhibition, cell reporter; control for the full effect not named in the record. 1.2% of 300,000 active. Potency, µM (highest dose often 37.9 µM), inactives show at the top dose activity change, negative = inhibition, usual class: inhibitors. AID 540256; active means well fitted inhibition curve with a large enough effect; inconclusive means small, poorly fitted or top-dose-only effect, or effect the other way; inactive means flat fitted curve, though single readings scatter; tested in HEK293 cells; also: % is scaled to controls: 0 for no effect and ±100 for the full control effect; nearly all actives have a fitted effect of over 50% in size; luciferase read-out
# RE007 growth inh – less growth of the S. pombe RE007 Vpr strain; S. pombe RE007 Vpr strain, BacTiter-Glo ATP luminescence, 24 h; control for the full effect not named in the record; Potency, µM (titrated, usually from 92.2 µM), inactives show top-dose activity change, negative = less growth; 0.21% of 360,000 active; active = well fitted falling curve with a large enough effect; inconclusive = small, poorly fitted or top-dose-only effect; inactive = no such curve, though single readings can be large or run the other way;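 also: % is scaled to controls: 0 for no effect and ±100 for the full control effect; nearly all actives have a fitted effect of over 50% in size; the assay follows cell death caused by Vpr and the record does not say whether a fall means rescue or toxicity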
#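 Fission yeast strain RE007, carrying one chromosomally integrated HIV-1 vpr copy, was seeded at OD 0.01 in PMG+AL medium with 23 nL pinned compound. After 24 h at 30 °C and 99% humidity, viability was read by BacTiter-Glo luminescence.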
# NS1 inh – inhibitors of influenza NS1 protein function; S. cerevisiae slowed by influenza A NS1, growth recovery by OD600; Potency, µM (top dose mostly 46.1 µM), for the others: top-dose activity, positive = more growth; 0.4% of 270,000 active; also: actives are rising curves; nearly all actives have a fitted effect of over 50% in size
#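 Compounds were scored for reversing the slow growth caused by influenza A NS1 in S. cerevisiae, measured by optical density at 600 nm. Assay medium contained 2% galactose at pH 6.0; NS1-free yeast of the same strain were the positive control.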
# MARV entry inh – inhibitors of Marburg virus binding or cell entry; Marburg virus pseudotyped entry inhibition, cell reporter; control for the full effect not named in the record; about a third of the inactives were read at about 46 µM; Potency, µM (highest dose often 37.8 µM), for inactives: at the top dose activity change, negative = inhibition, usual class: inhibitors; 1.8% of 300,000 active; AID 540276; active = well fitted inhibition curve with a large enough effect; inconclusive = small, poorly fitted or top-dose-only effect, or effect the other way; inactive = flat fitted curve, though single readings scatter; tested in HEK293 cells; about a fifth of its hits are not listed in these tables; also: % is scaled to controls: 0 for no effect and ±100 for the full control effect; luciferase read-out
# * hit, by the source's call; u = inconclusive; x = no result given; & = joins results of further samples; [ ] = dose if it differs, or a comment. Unless noted, calls follow the shape of the dose curve; as a rule, active means well fitted rising curve with a large enough effect; inconclusive means small, poorly fitted or top-dose-only effect; inactive means no such curve, though single readings can be large or run the other way. Potency is read from the fitted curve at half-maximal effect.
SMILES,SARS PLP yeast,Cruzain inh Det,Cruzain noTriton,2A StopGo,Lassa entry inh,RE007 growth inh,NS1 inh,MARV entry inh
CS(=O)(=O)c1cccc(NC(=O)C2CCCN2S(=O)(=O)c2ccc(F)cc2)c1 (stereo not drawn),3%,x,x,-8%,1%[46.1 µM],1%,-1%,-3%[46.1 µM]
CC(NC(=O)/C=C/c1ccc(Br)cc1)c1ccccc1 (stereo not drawn),-3%,4.3%,-6%,-17%,15µM*,29%,-1%,u
COc1ccc(O)c(CN2CC3CCC(CC3)C2)c1,x,x,x,-6%,4%,-5%,x,-7%
O=C(O)c1ccc(/C=C2\SC(=S)N(Nc3ccccc3)C2=O)cc1,-2%,x,x,13%,-12%,17%,3%,u
O=C1CCCC(O)=C1C=Nc1ccc2c(c1)oc1ccccc12,5%,5.1%,-3%,-11%,23%,-25%,-10%,21%
COc1ccc(N2CCN(C(=O)CSCc3ccc(C)cc3)CC2)cc1,x,-0.5%,6%,-7%,u,x,x,x
CCCCCc1c2c(cc(O)c1C(=O)O)OC(=O)c1cc(C(=O)CCCC)c(OC)cc1O2,7%,18µM*,u,u,x,13%,x,x
CCCN(CC(=O)Nc1ccc(F)c(F)c1F)C(=O)c1cc([N+](=O)[O-])ccc1N1CCOCC1,1%,x,x,3%,0%,7%,x,0%
O=C(COC(=O)c1cc([N+](=O)[O-])ccc1N1CCOCC1)Nc1ncc(Cl)cc1Cl,-1%,x,x,-13%,x,-9%,1%,x
N#Cc1cc(N2CCOCC2)nc2ccccc12,-1%,x,x,-2%,x,-21%,-13%,x
COc1ccc(NC(=O)CC2C(=O)N(c3cccc(OC)c3)C(=O)N2C2CCCCC2)cc1 (stereo not drawn),-4%,1.1%,18%,15%,55%[14.3 µM],17%,-7%,-3%&24%
COCCCNC(=O)CN(c1cc(Cl)cc(Cl)c1)S(C)(=O)=O,0%,0.9%,11%,-2%,0%,2%,0%,-8%
O=C(CCN1C(=O)c2ccccc2S1(=O)=O)Nc1nc2c(s1)CCCC2,-3%,-8.7%,-5%,59%[activator],u,10%,-8%,0%
O=C1N(Cc2cccnc2)C[C@@H]2C[C@@H](c3ccccc3C(F)(F)F)N3CCC[C@@]123,1%,x,x,-16%,x,-7%,2%,x
Cc1ccc(C)c(CN2CCCNC2=O)c1,0%,4.9%,1%,10%,5%,-2%,-2%,-1%
COc1ccc2nc(NC(=O)C3=NN(c4ccccc4)C(=O)CC3)sc2c1,-2%,-10.0%,-24%,-2%,13%,-10%,6%,43%
CCCCCCc1c(C)c2c(cc(C)c3c(C)coc32)oc1=O,x,-2.2%,-4%,-14%,u,x,x,-2%[46.1 µM]
O=C1CCCC2=C1C(c1cccs1)n1ncnc1N2 (stereo not drawn),0%,-2.2%,-3%,x,4%,-15%,-2%,-2%
O=C(NCc1ccco1)c1cc([N+](=O)[O-])ccc1N1CCCCC1,19%,-13%,-19%,-24%,1%,-13%,22%,u
O=[N+]([O-])c1cccc(N=NN(CCO)c2cccc([N+](=O)[O-])c2)c1,-1%,-6.9%,4%,-22%,-18%,-14%,-5%,-20%
O=C(CCc1ccco1)CCc1ccco1,x,x,x,-19%,-22%,-14%,x,2%
COCCn1c(C)cc(O)c(C(c2ccccc2)N2CCN(CCO)CC2)c1=O (stereo not drawn),x,-1.6%,7%,-23%,13%[46.1 µM],x,x,x
CN(c1cccc(NC(=O)c2cccc([N+](=O)[O-])c2)c1)S(C)(=O)=O,u,x,x,20%,x,-4%,10%,x
CCOC(=O)Nc1cccc(C(=O)O)c1,-19%,-0.5%,-19%,45%[activator],u,2%,10%,-6%
Cc1cc(C(=O)O)oc(=O)c1,0%,x,x,-10%,u,3%,-2%,-11%[46.1 µM]
Cc1cccc(C(=O)Nc2ccc(N3CC=C(c4ccccc4C)CC3)c(C(=O)O)c2)c1,x,0.8%,-10%,28%,u,x,x,x
CCCC(CCC(=O)Nc1ccc(S(N)(=O)=O)cc1)C(=O)O (stereo not drawn),4%,3.8%,-2%,-17%,0%,16%,3%,6%
COc1ccc(S(=O)(=O)N2CCCCC2)cc1NC(=O)C1CC(=O)N(Cc2ccco2)C1 (stereo not drawn),0%,x,x,18%,-22%[46.1 µM],-3%,x,u
O=[N+]([O-])c1ccc2[nH]c(=S)sc2c1,x,x,x,u,7%[46.1 µM],-16%,x,-25%
CC(C)Oc1ccc(CCC(=O)NNC(=O)CCC(=O)O)cc1,0%,x,x,7%,x,9%,1%,x
Cc1ccc(OCC(=O)Nc2ccccc2C(=O)N2CCCC2)cc1,-2%,x,x,-26%,u,0%,-18%,u
CCOC(=O)N1CCC(NCCNC(=O)c2ccccc2Cl)CC1,-5%,7.1%,1%,5%,-14%,2%,-7%,3%
CCN(CC)C(=O)C1CCN(c2ncnc3c2cnn3-c2ccc(C)cc2C)CC1,-4%,-3.8%,-2%,-8%,-16%,0%,1%,3%&-8%
Cc1cc(C)c2c(N)c(C(=O)NNC(=O)c3ccccc3)sc2n1,-1%,x,x,47%[activator],12%[46.1 µM],10%,-2%,4%[46.1 µM]
Cc1ccc(S(=O)(=O)N2CCc3cc(C(=O)Nc4c(F)cccc4F)ccc32)cc1,x,-1.3%,u,-7%,u,x,x,8%[46.1 µM]
Clc1ccccc1Cn1c(/C=C/c2ccco2)nc2ccccc21,-76%,-6.8%,-23%,u,3%,32%,-14%,u
Cc1cnc(NC(=O)/C=C/c2ccc(Br)o2)s1,0%,x,x,17%,1%[46.1 µM],-9%,-2%,u
C=CCn1c(SCc2nnc(-c3ccccc3)o2)nnc1C(O)c1ccccc1 (stereo not drawn),-2%,-6.6%,-3%,11%,21%[14.3 µM],8%,0%,-13%
O=c1c(Cc2c(F)cccc2Cl)c(O)ccn1CCc1c[nH]c2ccccc12,0%,x,x,-3%,x,0%,14%,x
COc1ccc2oc(C(=O)NCCN3CCOCC3)c(C)c2c1OC,-5%,x,x,5%,4%,-3%,-8%,30%
COC(=O)[C@@H](NC(=O)NC1CCN(Cc2ccccc2)CC1)C(C)C,7%,5.4%,9%,5%,4%,-25%,13%,0%
CCOC(=O)c1ccc(NC(=O)C2C3CCCCC32)cc1 (stereo not drawn),-1%,x,x,31%[activator],u,-10%,-11%,u
O=C(Nc1cccnc1Cl)c1cc(-c2cccc(O)c2)on1,-2%,x,x,22%,-33%[46.1 µM],1%,5%,u
O=C(Nc1ccc([N+](=O)[O-])cc1)c1cncc(Br)c1,-2%,x,x,8%,x,-7%,-4%,x
Cc1ccc(NC(=O)CN(C)C(=O)Cn2cc(C(F)(F)F)ccc2=O)cc1,-3%,-1.1%,-9%,-17%,3%,5%,1%,-3%
O=C(Nc1ccccc1F)c1ccc2c(c1)CCN2S(=O)(=O)c1ccccc1,-4%,x,x,37%[activator],u,4%,3%,u
NS(=O)(=O)c1ccc(CCNC(=O)CN2CCCCC2)cc1,-1%,x,x,8%,-9%[46.1 µM],8%,x,-12%[46.1 µM]
O=C(/C=C/c1c(F)cccc1Cl)NCc1ccco1,-14%,-6.0%,-13%,38%[activator],3%,22%,-3%,2%
COc1ccc(S(=O)(=O)N/N=C(/C)c2cccc(NC(=O)c3ccccc3Cl)c2)cc1,-7%,-0.6%,-7%,0%,-29%,3%,-1%,-22%
COc1ccc(CC(C)NC2CCCCCC2)cc1 (stereo not drawn),4%,x,x,-15%,-25%[46.1 µM],3%,1%,u
Cc1cccc(N(C)C(=O)c2cc3c(=O)[nH]c4ccc(C)cc4c3s2)c1,1%,x,x,-24%,u,-1%,3%,3.5µM*
CCOc1cccc2cc(C(=O)Nc3cc(C)on3)c(=O)oc12,-2%,0.1%,-10%,34%[activator],7%,-14%,-1%,21%
CCCc1cc(-c2n[nH]c(=S)n2CC)c2ccccc2n1,-6%,1.0%,-27%,-21%,-1%,-18%,25%,-4%
CN(C)S(=O)(=O)Oc1ccsc1C(=O)Nc1cccc(Cl)c1Cl,-14%,-2.8%,13%,-30%,u,-20%,-5%,-22%
O=C(NNc1cc(N2CCCC2)nc(N2CCCC2)n1)c1ccc([N+](=O)[O-])cc1,-1%,x,x,-10%,x,-15%,5%,5%[46.1 µM]
O=C(NCCC1=CCCCC1)c1ccc2c(c1)N(Cc1ccccc1)C(=O)c1ccccc1S2=O (stereo not drawn),x,1.6%,-13%,-20%,u,x,x,u
COC(=O)NCc1c(C)nn(-c2ccccc2)c1-n1cccc1,x,-0.9%,23%,-6%,-4%[46.1 µM],x,x,21%[46.1 µM]
O=S(=O)(CS(=O)(=O)c1ccc(Cl)cc1)c1ccc(Cl)cc1,6%,x,x,27%,5%,-24%,1%,11%&11%[46.1 µM]
COc1ccc(-c2nnc3ccc(SCC(=O)NCc4ccco4)nn23)cc1OC,12%,-2.7%,-10%,-12%,6%,3%,0%,-1%
O=C(CN1CCc2ccccc2C1)Nc1ccccc1C(=O)NC1CC1,-2%,x,x,-24%,13%,0%,x,u
# (more compounds)
SMILES,SARS PLP yeast,Cruzain inh Det,Cruzain noTriton,2A StopGo,Lassa entry inh,RE007 growth inh,NS1 inh,MARV entry inh
O=C(O)c1ccc(N=Nc2c(-c3ccccc3)[nH]oc2=O)cc1,0%,x,x,-3%,11%[46.1 µM],2%,3%,u
Cc1ccc(-c2nc(C=Nc3ccc(O)cc3)c(O)o2)cc1,-1%,x,x,10%,-24%,2%,x,u
O=C(NCCCN1CCN(CCCNC(=O)c2ccc(F)cc2)CC1)c1ccc(F)cc1,5%,0.3%,-11%,-17%,9%,6%,15%,-9%&-9%
COc1ccc2cc3cc(C(=O)N4CCN(c5cccc(Cl)c5)CC4)sc3nc2c1,x,-1.9%,7%,-4%,-2%[46.1 µM],x,x,10%[46.1 µM]
O=S(=O)(CC=CCS(=O)(=O)c1ccccc1)c1ccccc1,x,x,x,-2%,2%[46.1 µM],-4%,x,-13%[46.1 µM]
COc1nc(OCCNC(C)=O)nc(N(C)C)n1,8%,0.6%,4%,10%,-2%,-14%,9%,-1%
Cc1cc2c3nonc3ccc2n1C,5%,0.4%,7%,-22%,-2%,-18%,u,14%
